Assay outcomes (PubChem BioAssay)
RanGTP-Imp inh: inhibitors of RanGTP-importin-beta interaction, primary screen, biochemical, FRET, CFP-Ran, YFP-importin-beta, homogeneous | cell-free CFP-Ran/YFP-importin-beta FRET ratio | inhibition, % (concentration not given with the values) | 300,000 compounds, 1.1% hits;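 active = most replicates above 15%; inconclusive = exactly half above 15%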;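 note: 0% = DMSO wells and 100% = Ran loaded with GDP instead of GTP; wells of about 40 µL received 100 nL stock; the first replicate is given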
Beta2AR agonist: activates human beta-2 adrenergic receptor causing internalization. P07550. Am2.2-beta2AR cells, FAP receptor internalization, flow cytometry; reference of the scale not given here. response, % (concentration not given with the values). 340,000 compounds, 0.43% hits;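 active = response above a set limit, near 3 SD of response in nonfluorescent compounds, cut at about 42% in these data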;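 note: stock transfer was 100 nL into about 11 µL; a reference agonist was the positive control; negative values mostly stem from fluorescent compounds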
LANA-H2A inh: blocks KSHV LANA binding to histone H2A/H2B; Q9QR71; inhibition, % (test concentration not listed); cell-free LANA-H2A/H2B peptide, fluorescence polarization; 320,000 compounds, 0.6% hits; in the data active = inhibition mostly above about 10%, no sharp cut-off; inactive = mostly below about 6.7%;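 note: stock transfer was 7.5 nL into about 10 µL; 0% = median of vehicle wells and 100% = median of positive control wells; one replicate is shown; the record names a cut of 25% in any replicate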
Target sequence (Q9QR71 whole entry, looked up): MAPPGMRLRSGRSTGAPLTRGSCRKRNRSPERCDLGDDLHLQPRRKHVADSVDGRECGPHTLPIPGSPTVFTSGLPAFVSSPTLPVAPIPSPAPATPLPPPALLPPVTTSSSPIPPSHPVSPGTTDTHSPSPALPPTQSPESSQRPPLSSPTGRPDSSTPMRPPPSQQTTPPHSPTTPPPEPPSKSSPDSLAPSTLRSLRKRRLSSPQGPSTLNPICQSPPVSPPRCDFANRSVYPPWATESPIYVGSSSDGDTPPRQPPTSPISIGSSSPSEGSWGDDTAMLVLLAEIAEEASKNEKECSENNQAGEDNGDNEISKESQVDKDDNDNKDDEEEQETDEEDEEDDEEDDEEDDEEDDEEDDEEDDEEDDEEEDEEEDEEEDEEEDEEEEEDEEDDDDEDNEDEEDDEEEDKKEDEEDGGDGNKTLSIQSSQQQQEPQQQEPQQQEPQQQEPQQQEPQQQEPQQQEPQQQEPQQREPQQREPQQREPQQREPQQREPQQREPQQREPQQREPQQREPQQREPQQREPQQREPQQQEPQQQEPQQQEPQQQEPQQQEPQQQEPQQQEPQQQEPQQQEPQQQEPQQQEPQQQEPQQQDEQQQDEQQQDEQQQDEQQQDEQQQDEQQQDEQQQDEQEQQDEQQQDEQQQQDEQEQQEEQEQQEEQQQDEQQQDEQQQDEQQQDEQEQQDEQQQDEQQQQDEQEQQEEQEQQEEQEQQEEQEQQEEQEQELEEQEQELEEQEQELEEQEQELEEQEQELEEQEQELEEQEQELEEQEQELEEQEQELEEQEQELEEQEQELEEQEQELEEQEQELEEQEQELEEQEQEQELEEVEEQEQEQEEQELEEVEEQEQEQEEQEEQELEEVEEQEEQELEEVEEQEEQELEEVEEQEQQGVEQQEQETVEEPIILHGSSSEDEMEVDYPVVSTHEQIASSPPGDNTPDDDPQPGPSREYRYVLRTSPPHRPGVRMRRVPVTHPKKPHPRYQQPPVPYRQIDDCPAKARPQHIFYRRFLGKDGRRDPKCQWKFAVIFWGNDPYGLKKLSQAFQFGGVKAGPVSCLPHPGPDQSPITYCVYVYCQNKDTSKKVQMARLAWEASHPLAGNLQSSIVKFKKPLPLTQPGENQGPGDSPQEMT
T cruzi inh: blocks replication of Trypanosoma cruzi. AID 1885. 300,000 compounds, 1.4% hits. T. cruzi beta-gal in NIH3T3, luminescence, 90 h. inhibition, % (no concentration beside the values);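 active = mean inhibition across valid replicates above about 55%, limit read from the data; inconclusive = mean below that limit but half or more replicates reach it; inactive = mean below it, under half of replicates reach it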;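 note: signal also drops with host cell toxicity which is not excluded here; 0% = plate median of DMSO wells and 100% = zero luminescence signal; higher percent means less beta-gal luminescence so fewer parasites; stock transfer was 50 nL into about 50 µL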
A1 inh: inhibitors of the anti-apoptotic protein A1, read as caspase activation; MEF A1-2A-BIM cells, Caspase-Glo 3/7 luminescence, 3 h; percent of clofoctol response, vehicle zero; caspase activation, % (test concentration not listed); AID 2462; 330,000 compounds, 0.066% hits;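 active = over half of replicate activation scores above 10%, or exactly half above 10 with the replicate mean above 10; inconclusive = replicate mean below 10 yet half the replicates above 10; inactive = over half of replicates below 10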;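 note: wells of about 30 µL received 50 nL stock; many hits fall short of the cut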
UCH37 DUB inh: human UCH37 deubiquitinating enzyme inhibition; purified proteasome/UCH37, Ub-AMC cleavage fluorescence; AID 588478; 330,000 compounds, 0.33% hits; inhibition, % (concentration not given with the values);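 active = mean of two replicates above 20%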;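 note: 0% = compound-free wells with enzyme and 100% = wells lacking proteasome; stock transfer was 100 nL into about 20 µL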
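Test system – human UCH37 enzyme supplied as purified proteasome complex · Incubation – 30 min preincubation with enzyme, 25 min cleavage at room temperature · Detection – AMC fluorescence from Ub-AMC cleavage, excitation 355 nm, emission 460 nm · Benchmarks – no-proteasome wells (full inhibition) and compound-free wells (no inhibition)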
Calb FLC: affects C. albicans growth with fluconazole; C. albicans CaCi-2 (fluconazole-resistant clinical isolate) + fluconazole, Alamar Blue growth, 48 h; AID 1979; 300,000 compounds, 0.57% hits; growth inhibition, % (concentration not given with the values);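 active = most replicates above 75%; inconclusive = exactly half above 75%; inactive = most below 75%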;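 note: all wells also contain fluconazole at 8 µg/ml as a sub-toxic cotreatment; 0% = median of DMSO wells and 100% = median of geldanamycin control wells; wells of about 8 µL received 7.5 nL stock; the first replicate is given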
Beta cell apopt: blocks beta cell apoptosis; INS-1E cytokine-induced death, ATP luminescence, 48 h; percent of positive-control rescue, neutral wells zero; protection from apoptosis, % (test concentration not listed); 300,000 compounds, 0.8% hits;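 active = all replicates at 75% or more, or half of them and the mean; inconclusive = half reach 75% but not the mean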;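 note: 0% = cytokine-treated negative control wells and 100% = positive control rescue; higher means more ATP so stronger rescue from cytokine killing; wells of about 40 µL received 100 nL stock; the first replicate is given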
* hit, by the source's call; u = inconclusive; x = no result given.

The opening two entries as a preview:
SMILES | RanGTP-Imp inh | Beta2AR agonist | LANA-H2A inh | T cruzi inh | A1 inh | UCH37 DUB inh | Calb FLC | Beta cell apopt
CCCc1nc2c([nH]1)C(c1cccnc1)C(C#N)=C(N)O2 (stereo unspecified) | -3.7 | -9 | -0.1 | -20 | 0.3 | 2.4 | -20 | -5
Cc1ccc2c(c1)C(=O)C(=O)N2CC(=O)Nc1ccc(N2CCOCC2)cc1 | -0.1 | 2 | 5.0 | 9 | 0.2 | 0.5 | -43 | -5

All compounds of this part, from the start:
SMILES | RanGTP-Imp inh | Beta2AR agonist | LANA-H2A inh | T cruzi inh | A1 inh | UCH37 DUB inh | Calb FLC | Beta cell apopt
CCCc1nc2c([nH]1)C(c1cccnc1)C(C#N)=C(N)O2 (stereo unspecified) | -3.7 | -9 | -0.1 | -20 | 0.3 | 2.4 | -20 | -5
Cc1ccc2c(c1)C(=O)C(=O)N2CC(=O)Nc1ccc(N2CCOCC2)cc1 | -0.1 | 2 | 5.0 | 9 | 0.2 | 0.5 | -43 | -5
O=C1Cc2ccccc2C(=O)N1c1ccc(F)cc1Cl | -2.3 | 5 | -8.2 | -6 | 1.3 | -14 | 6 | x
COc1ccc(CNC(=O)CN(Cc2ccco2)C(=O)CNS(=O)(=O)c2ccc(C)cc2)cc1 | 4.8 | -1 | 0.1 | 6 | 0.1 | 0.8 | 5 | -8
COc1ccc(OC)c(-c2cc(C(=O)NC3CCCC3)c3ccccc3n2)c1 | 1.2 | 5 | -3.0 | 3 | 0.5 | -9.2 | -4 | -4
O=C(Nc1ccc(S(=O)(=O)N2CCCCC2)cc1)c1ccc(Cl)nc1 | x | -10 | -1.1 | x | -0.6 | 0.3 | x | 15
CCCOc1ccc(C(=O)ON=C2CCN(C)CC2)cc1 | -3.1 | -6 | 31* | -5 | 0.0 | x | u | -3
COC(=O)c1cc(-c2cccc(OC)c2)c2c(=O)[nH]c(=O)n(C)c2n1 | 1.2 | 6 | -5.4 | 9 | -1.3 | -78 | x | -7
COc1cc(Br)cc(CN2CCN(C=O)CC2)c1O | -0.7 | -5 | -3.3 | 6 | 0.1 | 0.6 | 32 | 2
O/N=C/c1ccc2cccc(O)c2n1 | u | -1 | -4.6 | -7 | -0.4 | x | 0 | -4
O=C(NCN1CCCCC1)c1cnccn1 | -0.4 | 1 | 2.5 | -8 | -0.2 | 2.2 | 3 | -10
COc1cc(NC(=S)N(C)CCC#N)c(OC)cc1Cl | -3.0 | 7 | 0.6 | -1 | 0.8 | 3.3 | 4 | -11
COc1cccc(C(=O)OCC(=O)c2c(N)n(C)c(=O)n(C)c2=O)c1 | x | 3 | 2.1 | x | -0.5 | 0.8 | x | -3
COc1ccccc1N1CCN(C(CNS(C)(=O)=O)c2cccnc2)CC1 (stereo unspecified) | 4.7 | -2 | 9.4 | 15 | 0.5 | 3.3 | 7 | -6
Cc1cc(C)c2nc(N3C(=O)C(O)=C(C(=O)c4ccco4)C3c3ccco3)sc2c1 (stereo unspecified) | -1.3 | 11 | -0.9 | -7 | 0.1 | x | -2 | -2
CC(C)OC(=O)CSc1nnc(-c2cnccn2)n1C | 2.2 | -3 | -1.4 | 7 | 0.2 | -1.5 | 1 | -3
COc1ccc(CCN(C)C(=O)c2ccc(COc3ccccc3)o2)cc1OC | 2.4 | 1 | 5.8 | 5 | -0.2 | 5.2 | 17 | 2
Cc1cc(C(=O)COC(=O)c2ccncc2)c(C)n1CCc1ccc(F)cc1 | 2.6 | 2 | 2.7 | 8 | 0.0 | 3.0 | 1 | -10
O=C(CSc1ncccn1)NC(=O)NCc1ccccc1 | -3.3 | -5 | 1.4 | -9 | -0.2 | 5.1 | -9 | 1
CN1CCN(C(=S)c2ccc(N(C)C)cc2)CC1 | 6.9 | 1 | -5.2 | x | 0.5 | 6.4 | -3 | -2
CN(C)C1=NCCN1CCCC1CCCCC1 | x | 20 | 3.2 | x | -0.3 | 1.2 | x | 0
COc1ccc(S(=O)(=O)NCCc2ccccc2)cc1 | -1.5 | 9 | -2.2 | 5 | -0.9 | 1.2 | -13 | -5
Cc1ccc(C=C2C(=O)c3ccccc3C2=O)s1 | -4.1 | 5 | 7.4 | -1 | 0.1 | 5.2 | 11 | 3
O=S(=O)(c1ccccc1)C1Cc2ccccc2C1Cl (stereo unspecified) | 4.1 | 8 | -1.2 | -23 | 0.1 | 2.6 | 0 | x
Nc1nc(N)c2ncc(C(=O)CCc3ccccc3)nc2n1 | 2.8 | -11 | -3.8 | 15 | -1.0 | -48 | 17 | x
Cc1ccc2c(c1)C1CC(C)(O2)N(c2cccc(C(=O)NCc3ccccn3)c2)C(=O)N1 (stereo unspecified) | -3.9 | 0 | -3.2 | -14 | -0.9 | 5.1 | 4 | 3
Oc1ccc(-c2cn3c(n2)SCC3)cc1 | u | -7 | 3.7 | -6 | 0.5 | 0.7 | 3 | -2
COc1ccccc1N1CCN(C(=O)c2c(-c3ccccc3)noc2C)CC1 | 6.0 | -4 | 4.2 | -12 | 0.7 | -0.6 | -2 | 20
COc1cccc(CN(C)C(=O)CCc2nnc(-c3ccsc3)o2)c1 | 2.2 | -4 | -1.8 | -2 | 2.7 | -1.2 | -12 | 0
OCCCN=c1cc(-c2ccccc2)oc2ccc(Cl)cc12 | 4.2 | -19 | -0.4 | 5 | -0.1 | 4.8 | 14 | 32
CCOC(=O)N1CCN(C(=O)c2ccc(Cn3c(=S)[nH]c4cc(OCC)c(OCC)cc4c3=O)cc2)CC1 | -1.6 | 4 | 0.9 | -10 | -0.8 | 6.9 | 15 | 14
Cc1ccc(C(=O)NC2CC3CCCC(C2)N3C(=S)NCc2ccco2)cc1 (stereo unspecified) | -0.2 | -3 | 4.1 | -2 | -0.5 | 3.7 | -5 | 0
CC(C)c1ccc(NC(=O)COc2ccc(S(=O)(=O)N3CCOCC3)cc2)cc1 | 1.1 | -1 | -3.1 | -3 | 1.6 | 0.3 | -4 | 2
CCCn1c(=O)[nH]c(=O)c2c1nc(-c1ccc(OC)c(Br)c1)n2CCOC | -3.4 | 2 | -0.3 | 27 | 0.3 | -6.2 | 10 | 6
CC(C)(C)c1cc(=O)n2c(C#N)c(C#N)nc2[nH]1 | 9.5 | 2 | 3.1 | 0 | -0.5 | -162 | -2 | -1
O=C1CC(Nc2ccc3ccccc3c2)C(=O)N1Cc1ccccc1 (stereo unspecified) | 2.5 | 12 | -3.1 | -7 | -0.3 | -2.2 | 11 | 0
CCC(Oc1ccccc1)C(=O)Nc1nnc(C)s1 (stereo unspecified) | 1.8 | 4 | -2.1 | -4 | -0.5 | 1.3 | u | -2
CCOC(=O)C(NC(C)=O)C(OC(C)=O)c1cccc(N(CCO)CCO)c1 (stereo unspecified) | 0.8 | -8 | 9.0 | -14 | 0.2 | 1.9 | -6 | -5
COc1ccc(N(CC(=O)NCCC2=CCCCC2)S(=O)(=O)c2ccccc2)cc1OC | -3.5 | 11 | 6.2 | 60* | -0.2 | 16 | 6 | 1
Cc1onc(-c2ccccc2)c1C(=O)Nc1nncs1 | 0.2 | 6 | 0.0 | 8 | 0.3 | 0.3 | -4 | 0
Oc1c(C(c2ccco2)N2CCOCC2)sc2ncnn12 (stereo unspecified) | -1.2 | -1 | 4.3 | -3 | 0.0 | 2.8 | 2 | -9
Cn1cccc1/C=N/NC(N)=S | 1.5 | 7 | -2.4 | -12 | 1.3 | x | 7 | -7
Cc1nc(Oc2ccc(Cl)cc2)c2oc3ccccc3c2n1 | 2.1 | -6 | 0.5 | 1 | 0.2 | 3.1 | -1 | 0
O=[N+]([O-])c1ccc(N=NNc2ccccc2)cc1 | u | 9 | -4.1 | -11 | -2.2 | 5.3 | -26 | 7
CCn1ccnc1CN(C)Cc1cn(-c2cccc(C)c2)nc1-c1cccc(F)c1 | -1.9 | 38 | -12 | 55* | 0.8 | 1.3 | -9 | 20
COc1ccc(NC(=O)COC(=O)c2ccc(F)cc2F)cc1 | -3.4 | 7 | -5.0 | -16 | 0.1 | 0.5 | -15 | -1
Cc1ccc(N(CC(=O)NCCSCc2ccco2)S(=O)(=O)c2ccc(F)cc2)cc1 | 1.9 | -2 | -2.2 | 12 | -0.5 | 5.4 | -20 | -5
O=C(Nc1ccc(S(=O)(=O)NCc2ccccc2)cc1)Nc1ccc2c(c1)OCO2 | -0.6 | 6 | 5.4 | 8 | -0.3 | 4.4 | 5 | 41
C=CCn1c(SCC(=O)c2ccc(O)c(O)c2)nnc1-c1ccc(OC)cc1 | x | 8 | -3.6 | x | -0.8 | 1.4 | x | 9
COc1ccc(N2CCN(C(=O)C3=NNC(=O)CC3)CC2)cc1 | -4.8 | 1 | -1.3 | -8 | 0.6 | 5.1 | -5 | -4
Going on with the list.
SMILES | RanGTP-Imp inh | Beta2AR agonist | LANA-H2A inh | T cruzi inh | A1 inh | UCH37 DUB inh | Calb FLC | Beta cell apopt
COc1ccc(OCC(=O)N/N=C(\C)CC(=O)Nc2cccc([N+](=O)[O-])c2)cc1 | 2.2 | -1 | 1.4 | -2 | 0.6 | x | -10 | -6
CC1(C)Cc2nc3sc4c(N(CCO)CCO)ncnc4c3cc2CO1 | -6.7 | -9 | 1.2 | 6 | -0.3 | -85 | -6 | -3
Cc1ccc(CN2C3CCCC2CC(NC(=O)c2ccc(F)cc2)C3)cc1 (stereo unspecified) | -6.5 | -12 | -1.0 | 34 | 0.4 | 1.9 | -23 | -2
CN(c1ccccc1)C1CCCCC1NS(=O)(=O)c1ccc(Cl)cc1 (stereo unspecified) | -5.1 | -2 | -8.3 | 23 | -0.3 | 4.2 | 23 | 4
CC(C)(C)N(Cc1ccccc1)C(=O)COC(=O)[C@@H]1CCCN1C(=O)c1cccs1 | 3.0 | -2 | -2.2 | -4 | 1.3 | 3.1 | -7 | -1
FC(F)(F)c1nnc2ccc(N3CCN(c4ccccc4)CC3)nn12 | 0.7 | 5 | -0.3 | 0 | -1.1 | -0.2 | 2 | 7
O=C(NC1CCS(=O)(=O)C1)C1C2CC3CC(C2)CC1C3 (stereo unspecified) | 6.9 | -3 | 1.1 | -1 | 0.3 | 4.1 | -12 | -3
O=C(O)CNC(=O)c1ccc(NC(=O)/C(=C/c2ccccc2)NC(=O)c2ccccc2Br)cc1 | 4.2 | -1 | -10 | -5 | -0.5 | 3.2 | 5 | 4
CCCN(CC(=O)Nc1ccccc1C)C(=O)COC(=O)CSc1ccc([N+](=O)[O-])cc1 | 0.7 | 2 | 1.8 | -7 | 0.1 | 3.7 | -5 | 2
CCOc1cc(C)c(Cl)cc1S(=O)(=O)NCCOC | 0.1 | -6 | 15 | -10 | -0.8 | 2.0 | -3 | x
CC(NC(=O)Nc1ccccc1)C(c1ccccc1)N1CCOCC1 (stereo unspecified) | u | 0 | 8.4 | -2 | -0.3 | 0.9 | 4 | -6
Cc1nn(C)c(Cl)c1CN1CCCC(CO)(Cc2cccc(Cl)c2)C1 (stereo unspecified) | x | 0 | -3.9 | 47 | 0.5 | 2.0 | -2 | -2
Cc1ccsc1C(=O)N1CCN(c2ncc(C(F)(F)F)cc2Cl)CC1 | 1.9 | -15 | 0.4 | 18 | 1.0 | 1.5 | -2 | -1
CCOc1ccc(C(=O)Nn2cnnc2)cc1OCC | 2.0 | 7 | -3.4 | -6 | 0.2 | -2.8 | 3 | -4
